Cruzain inh Det = inhibitors of Trypanosoma cruzi cruzain with detergent; purified cruzain, Z-FR-AMC fluorescence, 0.01% Triton; P25779; 200,000 tested, 0.43% active; Potency, µM, for the others: max response, negative = inhibition, most hits filed as inhibitors;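 further: plate controls were neutral wells for no effect and buffer without enzyme for full effect; nearly all actives have a fitted effect of over 40% in size; top concentration of the series not given in the record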
Target sequence (P25779 123-467 limits assumed): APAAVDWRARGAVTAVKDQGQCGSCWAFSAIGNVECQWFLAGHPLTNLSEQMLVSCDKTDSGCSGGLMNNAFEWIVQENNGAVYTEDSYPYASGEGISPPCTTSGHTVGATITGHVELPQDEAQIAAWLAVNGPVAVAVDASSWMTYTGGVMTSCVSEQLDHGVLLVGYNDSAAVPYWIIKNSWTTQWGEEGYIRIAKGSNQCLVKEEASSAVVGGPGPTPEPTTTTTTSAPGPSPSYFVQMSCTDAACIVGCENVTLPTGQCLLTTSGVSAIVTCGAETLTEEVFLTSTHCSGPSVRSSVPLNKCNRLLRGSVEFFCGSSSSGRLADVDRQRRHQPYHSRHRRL
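Detergent-containing run (0.01% Triton X-100) in acetate buffer pH 5.5 with 5 mM DTT: enzyme at 1.5 nM final, 15 min compound preincubation at room temperature, then 2 uM Z-FR-AMC substrate. Activity taken as 60 s fluorescence increase at 360/450 nm.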
Lassa entry inh = inhibitors of Lassa virus binding or cell entry | Lassa virus pseudotype entry inhibition, cell reporter; control for the full effect not named in the record | Potency, µM (titrated, usually from 37.9 µM), for the others: at the top dose activity change, negative = inhibition, usual class: inhibitors | 300,000 tested, 1.2% active; active means well fitted inhibition curve with a large enough effect; inconclusive means small, poorly fitted or top-dose-only effect, or effect the other way; inactive means flat fitted curve, though single readings scatter; tested in HEK293 cells; further: on the % scale 0 is the no-effect control and ±100 the full control effect; nearly all actives have a fitted effect of over 50% in size; luciferase read-out
Marburg entry inh = inhibitors of Marburg virus binding or cell entry; 300,000 tested, 1.8% active; Potency, µM (series often up to 37.8 µM), for the others: at the highest dose activity change, negative = inhibition, hits mostly inhibitors; AID 540276; Marburg virus pseudotyped entry inhibition, cell reporter; control for the full effect not named in the record; about a third of the inactives were read at about 46 µM; active = well fitted inhibition curve with a large enough effect; inconclusive = small, poorly fitted or top-dose-only effect, or effect the other way; inactive = flat fitted curve, though single readings scatter; tested in HEK293 cells; about a fifth of its hits are not listed in these tables; further: on the % scale 0 is the no-effect control and ±100 the full control effect; luciferase read-out
StopGo reporter = FMDV 2A StopGo reporter, luciferase signal. human cells with a luciferase reporter of 2A StopGo recoding; control for the full effect not named in the record. Potency, µM (series often up to 57.9 µM), inactives show at the top dose signal change, negative = less light. 410,000 tested, 1.2% active; active = well fitted falling curve with a large enough effect; inconclusive = small, poorly fitted or top-dose-only effect; inactive = no such curve, though single readings can be large or run the other way; tested in HEK293T cells; further: on the % scale 0 is the no-effect control and ±100 the full control effect; nearly all actives have a fitted effect of over 45% in size; luciferase light after 4 h
RE007 growth inh = less growth of the S. pombe RE007 Vpr strain; S. pombe RE007 Vpr strain, BacTiter-Glo ATP luminescence, 24 h; control for the full effect not named in the record; Potency, µM (titrated, usually from 92.2 µM), for inactives: at the highest dose activity change, negative = less growth; 360,000 tested, 0.21% active; AID 651644; active = well fitted falling curve with a large enough effect; inconclusive = small, poorly fitted or top-dose-only effect; inactive = no such curve, though single readings can be large or run the other way;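 further: on the % scale 0 is the no-effect control and ±100 the full control effect; nearly all actives have a fitted effect of over 50% in size; the assay follows cell death caused by Vpr and the record does not say whether a fall means rescue or toxicity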
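Fission yeast strain RE007, carrying one chromosomally integrated HIV-1 vpr copy, was seeded at OD 0.01 in PMG+AL medium with 23 nL pinned compound. After 24 h at 30 °C and 99% humidity, viability was read by BacTiter-Glo luminescence.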
SARS PLP yeast = inhibitors of SARS-CoV papain-like protease in yeast; 330,000 tested, 0.19% active; Potency, µM (series often up to 32.9 µM), for inactives: top-dose activity, positive = growth rescue; S. cerevisiae expressing SARS-CoV PLpro, growth rescue; control for the full effect not named in the record; active means well fitted rising curve with a large enough effect; inconclusive means small, poorly fitted or top-dose-only effect; inactive means no such curve, though single readings can be large or run the other way; further: 0% is about no effect; nearly all actives have a fitted effect of over 55% in size; growth read by luminescence after 48 h
Cruzain noTriton = cruzain (T. cruzi) inhibition without detergent; P25779; purified cruzain, Z-FR-AMC fluorescence, no detergent; Potency, µM, inactives show max response, negative = inhibition, actives largely listed as inhibitors; 200,000 tested, 2.3% active; AID 1476;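 further: plate controls were enzyme without inhibitor for no effect and buffer without enzyme for full effect; nearly all actives have a fitted effect of over 40% in size; top concentration of the series not given in the record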
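Purified cruzain at 1.5 nM, pre-incubated 15 min with compound at room temperature in 100 mM sodium acetate pH 5.5, 5 mM DTT, 0.00005% Triton X-100. Reaction started with 2 uM Z-FR-AMC; AMC fluorescence increase over 60 s gives rate.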
NS1 inh = blocks influenza NS1 protein function. S. cerevisiae slowed by influenza A NS1, growth recovery by OD600. 270,000 tested, 0.4% active. AID 2326. Potency, µM (highest dose often 46.1 µM), without a hit: at the top dose activity, positive = more growth; active means well fitted rising curve with a large enough effect; inconclusive means small, poorly fitted or top-dose-only effect; inactive means no such curve, though single readings can be large or run the other way; further: nearly all actives have a fitted effect of over 50% in size
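Read-out: OD600 growth recovery of NS1-expressing budding yeast. Cells grown overnight at 30C in -URA glucose medium, washed, resuspended and diluted 1:100 in 2% galactose assay medium, pH 6.0. Same strain lacking NS1 served as positive control.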
An asterisk follows results filed as active; ? = inconclusive; nt = not tested or not shown; & = joins results of further samples; [ ] = dose if it differs, or a comment. Unless noted, the call rests on the fitted dose curve; in most records, active means well fitted curve in the direction sought with a large enough effect; inconclusive means small, poorly fitted or top-dose-only effect, or another doubt; inactive means no such curve, though single readings can be large; an effect the other way counts as inactive or inconclusive. Potency means the concentration at half of the fitted maximal effect. Outcome played no part in choosing rows; 4.7% or so of the library scored in one or more.

SMILES	Cruzain inh Det	Lassa entry inh	Marburg entry inh	StopGo reporter	RE007 growth inh	SARS PLP yeast	Cruzain noTriton	NS1 inh
c1ccc(-c2cn3c(n2)CCc2ccc4cccnc4c2-3)cc1	-7.9%	nt	7%	7%	-19%	4%	-2%	-8%
CCC(C(=O)NCc1ccco1)N(C(=O)CNS(=O)(=O)c1ccc(C)cc1)c1ccccc1F (centres undefined)	nt	-42%	-7%[46.1 µM]	-2%	-8%	0%	nt	2%
CCOc1ccc(Oc2c(/C=N/NC(C)=O)c(C)nn2-c2ccccc2)cc1	-6.6%	-35%	2%	0%	4%	7%	5%	2%
COc1ccc(CN2CCN(c3ccccc3OC)CC2)c(OC)c1	nt	nt	nt	-5%	-22%	1%	nt	-2%
CCOC(=O)CSC(CC)C(=O)Nc1nnc(CC)s1 (centres undefined)	-1.2%	nt	nt	-14%	1%	4%	-5%	-13%
O=c1c(-c2ccco2)[n+]([O-])c2ccccc2n1OCc1ccccc1F	-3.0%	-12%	-19%	-14%	-12%	8%	4%	-3%
CCOC(=O)c1cc(-c2ccccc2)n(CCCC(=O)Nc2ccc(C)c(C)c2)c1C	-4.0%	-19%[46.1 µM]	nt	?	nt	nt	-1%	nt
Cn1c(SCC(=O)N=Nc2c(O)[nH]c3ccccc23)nc2ccccc21	1.2%	nt	0%	nt	nt	8%	2%	8%
FC(F)(F)c1cc(-c2cccc(Br)c2)nc2ncnn12	-12%	-25%[46.1 µM]	-1%[46.1 µM]	-14%	nt	nt	0%	nt
CN(CCC(=O)Nc1ccc(Br)cc1)Cc1ccccc1	0.8%	?	-22%	0%	-6%	4%	-3%	0%
O=C(Nc1cccc(OC(=O)c2ccco2)c1)c1ccco1	-1.9%	0%	5%	17%	-11%	0%	2%	-19%
COc1ccccc1/C=N/n1c(N)c(S(=O)(=O)c2cccs2)c2nc3ccccc3nc21	3.8%	6%	-3%	-24%	-28%[3.69 µM]	4%	7.9µM*	9%
c1ccc(-c2nnc(-c3ccccn3)nc2NC2CCCCC2)cc1	0.3%	5µM*	3.5µM*	2%	?	-50%	13%	-151%
Cc1ccc(NC(=S)N2CCCC(O)C2)cc1 (centres undefined)	nt	9%[46.1 µM]	14%[46.1 µM]	31%[activator]	-4%	-9%	nt	nt
O=C(NCC(=O)N1CCN(S(=O)(=O)c2ccccc2F)CC1)c1ccc2ccccc2c1	nt	14%	3%[46.1 µM]	-15%	-6%	-5%	nt	nt
Cc1ccc(OCC(=O)NCCNC(=O)c2ccco2)cc1C	nt	16%[46.1 µM]	-9%[46.1 µM]	35%[activator]	-17%	-1%	nt	2%
CCc1nn2c(=O)cc(COC(=O)c3ccc(NC(=O)C4CCCCC4)cc3)nc2s1	-0.7%	-1%[46.1 µM]	nt	-2%	nt	nt	-5%	nt
Cc1ccccc1OCC(=O)Nc1ccccc1C(=O)N1CCCCC1	nt	13%	9%	32%[activator]	6%	8%	nt	-4%
CCOc1ccc(OCC)c(NC(=O)CSc2nc3c(c(=O)n(C)c(=O)n3C)n2C(C)C)c1	-4.7%	?	?	nt	13%	-3%	?	-36%
CCCCCCCCCCCCCC(=O)O	-11%	nt	nt	-22%	15%	0%	?	nt
CCCSc1nnc(NC(=O)Nc2ccc(F)cc2)s1	0.8%	?	?	-25%	1%	-16%	?	-17%
NC(=S)N=Nc1ccc(NN=C(N)N)cc1	nt	nt	nt	-8%	-20%	2%	nt	-85%
CC(=O)Nc1cc2c(cc1C(=O)c1ccccc1)OCCO2	0.1%	-1%	8%	3%	18%	1%	-1%	-15%
Cc1nc(S(=O)(=O)Cc2ccccc2)nc2c1CCC2	nt	0%	10%[46.1 µM]	1%	11%	1%	nt	3%
Cc1nnc(SCC2=C(C(=O)O)N3C(=O)C(NC(=O)Cn4ncc(Cl)c4C)C3SC2)s1 (centres undefined)	nt	-1%[46.1 µM]	13%[46.1 µM]	5%	-6%	-4%	nt	nt

No new results follow: entries from further up.
SMILES	Cruzain inh Det	Lassa entry inh	Marburg entry inh	StopGo reporter	RE007 growth inh	SARS PLP yeast	Cruzain noTriton	NS1 inh
CCCCCCCCCCCCCC(=O)O	-11%	nt	nt	-22%	15%	0%	?	nt
CCCSc1nnc(NC(=O)Nc2ccc(F)cc2)s1	0.8%	?	?	-25%	1%	-16%	?	-17%
NC(=S)N=Nc1ccc(NN=C(N)N)cc1	nt	nt	nt	-8%	-20%	2%	nt	-85%
CC(=O)Nc1cc2c(cc1C(=O)c1ccccc1)OCCO2	0.1%	-1%	8%	3%	18%	1%	-1%	-15%
Cc1nc(S(=O)(=O)Cc2ccccc2)nc2c1CCC2	nt	0%	10%[46.1 µM]	1%	11%	1%	nt	3%
Cc1nnc(SCC2=C(C(=O)O)N3C(=O)C(NC(=O)Cn4ncc(Cl)c4C)C3SC2)s1 (centres undefined)	nt	-1%[46.1 µM]	13%[46.1 µM]	5%	-6%	-4%	nt	nt

The main list resumes, starting 2 compounds before the break.
SMILES	Cruzain inh Det	Lassa entry inh	Marburg entry inh	StopGo reporter	RE007 growth inh	SARS PLP yeast	Cruzain noTriton	NS1 inh
Cc1nc(S(=O)(=O)Cc2ccccc2)nc2c1CCC2	nt	0%	10%[46.1 µM]	1%	11%	1%	nt	3%
Cc1nnc(SCC2=C(C(=O)O)N3C(=O)C(NC(=O)Cn4ncc(Cl)c4C)C3SC2)s1 (centres undefined)	nt	-1%[46.1 µM]	13%[46.1 µM]	5%	-6%	-4%	nt	nt
Cc1ccc(OCCC(=O)OCC(=O)NNC(=O)c2ccccc2)cc1	nt	?	-1%	29%	9%	1%	nt	nt
CCC1CN1P(=O)(Oc1ccc(Cl)cc1)N1CC1CC (centres undefined)	nt	-6%	?	-9%	-15%	nt	nt	nt
COc1cccc(CC(NC(C)=O)C(=O)NC2CCN(C(=O)c3ccc(Cl)cc3)CC2)c1 (centres undefined)	nt	-13%[46.1 µM]	4%[46.1 µM]	-1%	-11%	9%	nt	13%
COc1ccc(C=O)cc1COc1ccc(F)cc1F	-5.5%	-1%	0%	-2%	-17%	0%	?	5%
CCOC(=O)C1=C(CSc2nc3ccccc3s2)NC(=O)NC1c1cccc([N+](=O)[O-])c1 (centres undefined)	3.8%	13%	?	nt	1%	nt	?	17%
Cc1ccc(NC(=O)c2oc3ccc(S(=O)(=O)N4CCOCC4)cc3c2C)cc1C	-2.5%	-25%	-27%	-5%	0%	25%	?	-3%
O=C(O)c1nn2c(C(F)(F)F)cc(-c3cccs3)nc2c1Cl	-4.2%	6%	?	-9%	15%	4%	1%	11%
Cc1cccc(-n2c(CCCN3C(=O)c4ccccc4C3=O)nc3ccccc3c2=O)n1	-5.3%	-5%	-4%&-4%[46.1 µM]	-14%	-2%	-3%	-1%	-1%
C#C[C@]1(O)CCC2C3C(=O)C=C4C=CCC[C@]4(C)C3CC[C@@]21C (some centres undefined)	nt	?	-24%[46.1 µM]	1%	2%	nt	nt	nt
Cc1nc2ccccc2nc1N1CCC(C)CC1	2.0%	4%	9%[46.1 µM]	12%	-4%	nt	-5%	-34%
COc1cccc(-c2noc(COc3ccc(C(C)(C)C)cc3)n2)c1	-7.6%	3%[46.1 µM]	?	-4%	nt	nt	?	nt
COc1ccc(O)c(C(=O)c2cc(SCC(=O)O)c3nc4sc5c(c4c(=O)n3c2)CCCC5)c1	nt	16%	-17%[46.1 µM]	22%	-18%	1%	nt	3%
Nc1[nH]ncc1-c1ccc(Cl)cc1	nt	?	9%	12%	-1%	-7%	nt	nt
Cc1ccc(S(=O)(=O)N2CCCC2C(=O)Nc2nc3c(s2)CCCC3)cc1 (centres undefined)	-4.1%	3%	?	?	-15%	-13%	?	-50%
CC(C)[C@H](NC(=O)c1cccc(S(=O)(=O)N2CCOCC2)c1)C(=O)Nc1nccs1	nt	1%	?	-3%	1%	0%	nt	nt
CCOC(=O)CSC(CC)C(=O)Nc1nnc(C(C)C)s1 (centres undefined)	-3.7%	nt	nt	-9%	-8%	-4%	-6%	-1%
CC(C)CCN1CN(S(=O)(=O)c2cccs2)c2nc3ccccc3nc21	-3.4%	11%	7%	-25%	-21%	7%	7%	-5%
CCN(Cc1ccccc1)C(=O)CSc1nc(C)cc2c1C(=O)OC2	2.5%	-3%	29%	2%	2%	14%	-9%	-9%
Cc1ccc(NC(=O)NCCN2CCN(C(=O)Nc3ccc(C)cc3)CC2)cc1	nt	9%[46.1 µM]	-17%[46.1 µM]	6%	-18%	0%	nt	-1%
CCOc1ccc(N2CC(c3nc4ccccc4n3CCOc3ccc(CC)cc3)CC2=O)cc1 (centres undefined)	-2.6%	19%[46.1 µM]	5%[46.1 µM]	-15%	nt	nt	-3%	nt
O=C(c1ccco1)N1CCN(C(=O)c2ccccc2OCc2ccc(Cl)cc2)CC1	nt	?	-11%	-18%	-5%	?	nt	nt
Cc1ccc(S(=O)(=O)N2CCCCC2)cc1NC(=O)c1cc(F)c(F)c(F)c1F	nt	-2%[46.1 µM]	?	16%	-9%	13%	nt	nt
O=C(CCc1nc2ccccc2c(=O)[nH]1)Nc1cccc(S(=O)(=O)N2CCOCC2)c1	nt	-9%	6%[46.1 µM]	27%	-8%	-4%	nt	nt
O=C(/C=C/c1ccccc1Cl)N(Cc1ccccc1)C1CCS(=O)(=O)C1 (centres undefined)	-7.1%	-6%	4%	?	-15%	0%	0%	-3%
COc1cc(C(=O)Nc2nnc(C(F)(F)F)s2)c([N+](=O)[O-])cc1OC	nt	nt	nt	-2%	10%	1%	nt	7%
COc1ccc(C(=O)c2ccc([N+](=O)[O-])cc2)c(OC)c1OC	nt	?	13%	-14%	15%	nt	nt	nt
CCOC(=O)N1CCN(CC(=O)Nc2ccc(OC)cc2)CC1	5.9%	?	15%	12%	2%	nt	-9%	1%
